StopGo reporter: High Throughput Screening for Foot and Mouth Disease Virus Antivirals; human cells with a luciferase reporter of 2A StopGo recoding; control for the full effect not named in the record; Potency, µM (titrated, usually from 57.9 µM), without a hit: top-dose signal change, negative = less light; 410,000 compounds, 1.2% hits; AID 1159524, 2015; active = well fitted falling curve with a large enough effect; inconclusive = small, poorly fitted or top-dose-only effect; inactive = no such curve, though single readings can be large or run the other way; tested in HEK293T cells; also: % is scaled to controls: 0 for no effect and ±100 for the full control effect; nearly all actives have a fitted effect of over 45% in size; luciferase light after 4 h
Cruzain Triton: qHTS Assay for Promiscuous and Specific Inhibitors of Cruzain (with detergent) | purified cruzain, Z-FR-AMC fluorescence, 0.01% Triton | Potency, µM, for inactives: max response, negative = inhibition, most hits filed as inhibitors | 200,000 compounds, 0.43% hits | Cruzipain (Trypanosoma cruzi), P25779 | AID 1478, 2009;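 also: plate controls were neutral wells for no effect and buffer without enzyme for full effect; nearly all actives have a fitted effect of over 40% in size; top concentration of the series not given in the record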
Target sequence (P25779 123-467 limits assumed): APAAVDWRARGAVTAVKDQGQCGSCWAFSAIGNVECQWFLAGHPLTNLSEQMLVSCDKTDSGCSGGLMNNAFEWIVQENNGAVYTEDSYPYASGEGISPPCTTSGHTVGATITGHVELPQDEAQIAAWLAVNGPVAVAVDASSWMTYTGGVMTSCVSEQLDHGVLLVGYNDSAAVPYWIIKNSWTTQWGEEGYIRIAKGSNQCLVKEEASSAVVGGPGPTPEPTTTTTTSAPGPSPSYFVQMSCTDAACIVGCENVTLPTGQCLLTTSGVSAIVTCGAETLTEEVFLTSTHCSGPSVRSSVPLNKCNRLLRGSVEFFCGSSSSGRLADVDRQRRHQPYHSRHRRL
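In this qHTS format, compounds are incubated with 1.5 nM cruzain for 15 min at room temperature before 2 uM Z-FR-AMC is added. Release of AMC is followed at 360/450 nm, and progress is taken as the 60 s fluorescence difference.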
Cruzain noTriton: qHTS Assay for Promiscuous and Specific Inhibitors of Cruzain (without detergent); Cruzipain (Trypanosoma cruzi), P25779; 200,000 compounds, 2.3% hits; Potency, µM, inactives show max response, negative = inhibition, actives largely listed as inhibitors; purified cruzain, Z-FR-AMC fluorescence, no detergent;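 also: plate controls were enzyme without inhibitor for no effect and buffer without enzyme for full effect; nearly all actives have a fitted effect of over 40% in size; top concentration of the series not given in the record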
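Purified cruzain at 1.5 nM, pre-incubated 15 min with compound at room temperature in 100 mM sodium acetate pH 5.5, 5 mM DTT, 0.00005% Triton X-100. Reaction started with 2 uM Z-FR-AMC; AMC fluorescence increase over 60 s gives rate.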
SARS PLpro yeast: qHTS of Yeast-based Assay for SARS-CoV PLP; S. cerevisiae expressing SARS-CoV PLpro, growth rescue; control for the full effect not named in the record; Potency, µM (top dose mostly 32.9 µM), for the others: at the top dose activity, positive = growth rescue; 330,000 compounds, 0.19% hits; active means well fitted rising curve with a large enough effect; inconclusive means small, poorly fitted or top-dose-only effect; inactive means no such curve, though single readings can be large or run the other way; also: 0% is about no effect; nearly all actives have a fitted effect of over 55% in size; growth read by luminescence after 48 h
Marburg entry inh: qHTS for inhibitors of binding or entry into cells for Marburg Virus. Marburg virus pseudotyped entry inhibition, cell reporter; control for the full effect not named in the record; about a third of the inactives were read at about 46 µM. Potency, µM (highest dose often 37.8 µM), inactives show top-dose activity change, negative = inhibition, usual class: inhibitors. AID 540276, 2011. 300,000 compounds, 1.8% hits; active = well fitted inhibition curve with a large enough effect; inconclusive = small, poorly fitted or top-dose-only effect, or effect the other way; inactive = flat fitted curve, though single readings scatter; tested in HEK293 cells; about a fifth of its hits are not listed in these tables; also: % is scaled to controls: 0 for no effect and ±100 for the full control effect; luciferase read-out
RE007 growth inh: qHTS Assay for Inhibitors of the HIV-1 protein Vpr; AID 651644, 2012; S. pombe RE007 Vpr strain, BacTiter-Glo ATP luminescence, 24 h; control for the full effect not named in the record; Potency, µM (series often up to 92.2 µM), for the others: top-dose activity change, negative = less growth; 360,000 compounds, 0.21% hits; active = well fitted falling curve with a large enough effect; inconclusive = small, poorly fitted or top-dose-only effect; inactive = no such curve, though single readings can be large or run the other way;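 also: % is scaled to controls: 0 for no effect and ±100 for the full control effect; nearly all actives have a fitted effect of over 50% in size; the assay follows cell death caused by Vpr and the record does not say whether a fall means rescue or toxicity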
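Fission yeast strain RE007, carrying one chromosomally integrated HIV-1 vpr copy, was seeded at OD 0.01 in PMG+AL medium with 23 nL pinned compound. After 24 h at 30 °C and 99% humidity, viability was read by BacTiter-Glo luminescence.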
LASV entry inh: qHTS for Inhibitors of binding or entry into cells for Lassa Virus; Lassa virus pseudotype entry inhibition, cell reporter; control for the full effect not named in the record; Potency, µM (series often up to 37.9 µM), for inactives: at the highest dose activity change, negative = inhibition, actives largely listed as inhibitors; 300,000 compounds, 1.2% hits; AID 540256, 2011; active means well fitted inhibition curve with a large enough effect; inconclusive means small, poorly fitted or top-dose-only effect, or effect the other way; inactive means flat fitted curve, though single readings scatter; tested in HEK293 cells; also: % is scaled to controls: 0 for no effect and ±100 for the full control effect; nearly all actives have a fitted effect of over 50% in size; luciferase read-out
* marks the source's active call; other numbers are inactive results; ? = inconclusive; · = no result given; & = joins results of further samples; [ ] = another dose, or the depositor's remark. Unless noted, calls follow the shape of the dose curve; as a rule, active = well fitted curve in the direction sought with a large enough effect; inconclusive = small, poorly fitted or top-dose-only effect, or another doubt; inactive = no such curve, though single readings can be large; an effect the other way counts as inactive or inconclusive. Potency is read from the fitted curve at half-maximal effect. These rows are one share of the data (hit frequency here may not be typical).

Field names: A = StopGo reporter; B = Cruzain Triton; C = Cruzain noTriton; D = SARS PLpro yeast; E = Marburg entry inh; F = RE007 growth inh; G = LASV entry inh
COC(=O)c1ccccc1O
  A: · | B: 10% | C: -5% | D: · | E: · | F: · | G: ·

C[C@@]12CC[C@H]3[C@@H](CCC4=CC(=O)CC[C@]43C)[C@H]1CC[C@H]2C(=O)CO
  A: · | B: 2.1% | C: 8% | D: · | E: · | F: · | G: ·

CCC1OC(=O)C[C@H](O)C(C)[C@@H](O[C@@H]2OC(C)C(O)C(N(C)C)C2O)C(CCN2CC(C)CC(C)C2)CC(C)C(=O)/C=C/C(C)=C\[C@@H]1COC1OC(C)C(O)C(OC)C1OC (stereo not given in full)
  A: · | B: -1.4% | C: -8% | D: · | E: · | F: · | G: ·

C[C@@H]1CC[C@]2(C(=O)O)CC[C@]3(C)C(=CCC4[C@@]5(C)C[C@@H](O)[C@H](O)[C@@](C)(CO)C5CC[C@]43C)C2[C@H]1C (stereo not given in full)
  A: · | B: -0.3% | C: ? | D: · | E: · | F: · | G: ·

CCCCNCC
  A: · | B: 0.9% | C: -9% | D: · | E: · | F: · | G: ·

COc1cc(C=O)ccc1O
  A: · | B: 0.9%&3.2% | C: -1%&-2% | D: · | E: · | F: · | G: ·

C=Cc1ccccc1
  A: · | B: -1.6% | C: -2% | D: · | E: · | F: · | G: ·

CC(C)(CO)[C@H](O)C(=O)NCCCO
  A: · | B: -1.0% | C: -9% | D: · | E: · | F: · | G: ·

CC[C@@]12CCCN3CCc4c(n(c5ccccc45)[C@](O)(C(=O)OC)C1)[C@H]32
  A: · | B: 3.3%&-1.5%&-5.2% | C: -5%&4%&-16% | D: · | E: · | F: · | G: ·

O=C(c1ccc(F)cc1)C1CCN(CCn2c(=O)[nH]c3ccccc3c2=O)CC1
  A: · | B: 0.1% | C: 2% | D: · | E: · | F: · | G: ·

Cc1ccsc1/C=C\C1=NCCCN1C
  A: · | B: -0.3% | C: -5% | D: · | E: · | F: · | G: ·

CCCCC(CC)COC(=O)c1ccccc1O (stereo not given)
  A: · | B: 0.1% | C: 0% | D: · | E: · | F: · | G: ·

COc1ccc(-c2oc3c(CC=C(C)C)c(O[C@@H]4O[C@H](CO)[C@@H](O)[C@H](O)[C@H]4O)cc(O)c3c(=O)c2O[C@@H]2O[C@@H](C)[C@H](O)[C@@H](O)[C@H]2O)cc1
  A: · | B: · | C: · | D: 2% | E: · | F: · | G: ·

CCN(CC)CC1CCCCN1CC(=O)N1c2ccccc2C(=O)Nc2cccnc21 (stereo not given)
  A: · | B: · | C: · | D: 2% | E: · | F: · | G: ·

COc1cc(N)c(Cl)cc1C(=O)N[C@@H]1CCN(CCCOc2ccc(F)cc2)C[C@@H]1OC
  A: · | B: · | C: · | D: 9% | E: · | F: · | G: ·

CN(C)CCCSc1ccccc1NC(=O)/C=C/c1ccccc1
  A: · | B: · | C: · | D: 1% | E: · | F: · | G: ·

CCn1c(-c2nonc2N)nc2cnc(Oc3cccc(NC(=O)c4ccc(OCCN5CCOCC5)cc4)c3)cc21
  A: · | B: · | C: · | D: · | E: · | F: · | G: 20µM*

Cc1cccc(C)c1NC(=O)[C@H]1CCCCN1C
  A: · | B: · | C: · | D: · | E: 10% | F: · | G: ·

CN1CCCN=C1COC(=O)[C@@](O)(c1ccccc1)C1CCCCC1
  A: · | B: · | C: · | D: · | E: -6% | F: · | G: ·

NC(=O)C[C@@H](N)C(=O)O
  A: -13% | B: · | C: · | D: · | E: · | F: · | G: ·

C=CCN1C[C@H](C(=O)N(CCCN(C)C)C(=O)NCC)C[C@@H]2c3cccc4[nH]cc(c34)C[C@H]21
  A: -5% | B: · | C: · | D: · | E: · | F: · | G: ·

CCN(CC)CCOc1ccc(Cc2ccccc2)cc1
  A: -5% | B: -1.8% | C: -4% | D: · | E: · | F: · | G: ·

CC1CCC2(C(=O)O)CCC3(C)C(=CCC4C3(C)CCC3[C@@]4(C)CC(O)C(O)[C@@]3(C)CO)C2C1C (stereo not given in full)
  A: -5% | B: 0.0% | C: ? | D: · | E: · | F: · | G: ·

Cc1ccccc1OCC(O)CO (stereo not given)
  A: 3% | B: 4.0% | C: -1% | D: · | E: · | F: · | G: ·

Cc1cc(Cn2cnc3c2C[C@@H](C(=O)O)N(C(=O)C(c2ccccc2)c2ccccc2)C3)ccc1N(C)C
  A: -16% | B: -4.4% | C: ? | D: · | E: · | F: · | G: ·

CC1(C)[C@@H](O[C@H]2O[C@H](C(=O)O)[C@@H](O)[C@H](O)[C@H]2O[C@@H]2O[C@H](C(=O)O)[C@@H](O)[C@H](O)[C@H]2O)CC[C@]2(C)[C@H]3C(=O)C=C4[C@@H]5C[C@@](C)(C(=O)O)CC[C@]5(C)CC[C@@]4(C)[C@]3(C)CC[C@@H]12
  A: -9% | B: -2.3% | C: ? | D: · | E: · | F: · | G: ·

COc1ccc(-c2cc(C(F)F)nn2-c2ccc(S(N)(=O)=O)cc2)cc1F
  A: 1% | B: 1.5% | C: 13% | D: · | E: · | F: · | G: ·

CN(C(=O)c1c(O)c2ccccc2n(C)c1=O)c1ccccc1
  A: -15% | B: -1.0% | C: 7% | D: · | E: · | F: · | G: ·

CN(C)CC/C=C1/c2ccccc2COc2ccc(CC(=O)O)cc21
  A: -22% | B: · | C: · | D: · | E: · | F: 9%[18.4 µM] | G: ·

COC(=O)N/N=C/c1c[n+]([O-])c2ccccc2[n+]1[O-]
  A: -15%&-5% | B: · | C: · | D: · | E: · | F: 5% | G: ·

C[C@@H]1C[C@H]2[C@@H]3CCC4=CC(=O)C=C[C@]4(C)[C@@]3(Cl)[C@@H](O)C[C@]2(C)[C@@]1(OC(=O)c1ccco1)C(=O)CCl
  A: ? | B: · | C: · | D: · | E: · | F: 0% | G: ·

O=C(O)Cc1sc(-c2ccccc2)nc1-c1ccc(Cl)cc1
  A: -20% | B: · | C: · | D: · | E: · | F: 22% | G: ·

Cc1cccc(Cc2c(C)nc3c(-c4ccccc4)c(C)[nH]n3c2=O)c1
  A: -9% | B: · | C: · | D: · | E: ? | F: · | G: ?

O=C(Nc1cc(-c2ccccc2)nn1-c1ccccc1F)c1ccc([N+](=O)[O-])cc1
  A: -24% | B: · | C: · | D: -2% | E: · | F: -1% | G: ·

CC1O[C@@H](OCC2O[C@@H](Oc3cc(O)c4c(c3)OC(c3ccc(O)cc3)CC4=O)[C@H](O)[C@@H](O)[C@@H]2O)[C@H](O)[C@H](O)[C@H]1O (stereo not given in full)
  A: -7% | B: · | C: · | D: 4% | E: · | F: 4% | G: ·

CC[C@]12CCCN3CCc4c(n(c5ccccc45)[C@](O)(C(=O)OC)C1)[C@@H]32
  A: -22% | B: · | C: · | D: -12% | E: · | F: -10%[18.4 µM] | G: ·

Assay outcomes deposited in PubChem by National Center for Advancing Translational Sciences (NCATS).
